# Source: PubChem
# miR-21 FLuc: raises the signal of a miR-21 reporter; HeLa miR-21 FLuc reporter, luciferase, 48 h; Potency, µM (top dose mostly 38.3 µM), for the others: at the highest dose reporter change, positive = more light; 340,000 tested, under 10 active; AID 2288; active = well fitted rising curve with a large enough effect; inconclusive = small, poorly fitted or top-dose-only effect; inactive = no such curve, though single readings can be large or run the other way;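 also: % of control where 0% means no effect; miR-21 action dims this reporter so a rising signal means less miR-21 action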
#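 Using DMEM plus 10% FBS, HeLa miR-21-FLuc cells are incubated with test compounds (final up to about 40uM) for 48 hours; firefly luciferase signal is then imaged following reagent-mediated lysis.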
# GLA inh pH 4.5: blocks human alpha-galactosidase A at pH 4.5; purified enzyme, 4-MU-alpha-Gal fluorescence, pH 4.5; activity change, negative = inhibition, % at 105 µM; 230,000 tested, under 10 active; AID 1467; inconclusive = small, poorly fitted or top-dose-only inhibition, or a rising curve; inactive = flat fitted curve, though single readings scatter; no compound was filed as active;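 also: 0% = full activity with enzyme and -100% = basal without enzyme; dose as in the result columns while the protocol names 77 µM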
# Target sequence (P06280 whole entry, looked up): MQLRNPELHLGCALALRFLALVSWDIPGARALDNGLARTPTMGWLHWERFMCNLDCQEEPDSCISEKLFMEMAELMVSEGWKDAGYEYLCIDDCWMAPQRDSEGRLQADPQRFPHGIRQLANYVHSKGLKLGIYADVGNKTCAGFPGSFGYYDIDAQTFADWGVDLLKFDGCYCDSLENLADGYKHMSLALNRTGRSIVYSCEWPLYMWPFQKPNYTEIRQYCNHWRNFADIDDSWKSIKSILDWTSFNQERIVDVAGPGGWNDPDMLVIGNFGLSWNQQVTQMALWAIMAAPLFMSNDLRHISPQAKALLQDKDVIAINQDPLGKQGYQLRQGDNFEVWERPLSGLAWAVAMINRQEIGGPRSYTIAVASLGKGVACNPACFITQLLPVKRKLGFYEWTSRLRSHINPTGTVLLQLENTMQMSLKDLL
# Rango dissoc inh: prevents RanGTP from dissociating the Rango-importin beta complex; O95149+P62826; Biochemical FRET Rango-importin beta, RanGTP-induced dissociation; Potency, µM (top dose mostly 46.1 µM), inactives show at the highest dose activity change, negative = inhibition; hit rate 0.071% among 340,000; AID 540253; active means falling FRET ratio curve, often poorly fitted, with flat reads before Ran was added; inconclusive means other falling curves, or compound fluorescence or quenching; inactive means flat or rising ratio curve;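 also: potency is read from the fitted curve at half-maximal effect; % of control where 0% means no effect; nearly all actives have a fitted effect of over 45% in size; -100% = wells without RanGTP and RCC1; the record marks most hits as doubtful in a second field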
#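 Quantitative HTS using a FRET biosensor: 0.1 uM Rango, 0.25 uM importin beta, 0.6 uM Ran, 2 mM GTP, 0.2 uM RCC1 final, PBS with DTT, Tween-20 and BSA. Post-read taken 45 min after Ran addition.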
# Rango complex inh: prevents formation of the Rango-importin beta complex; Q14974; Rango CFP/YFP FRET sensor + importin beta, 45 min; Potency, µM (top dose mostly 92.2 µM), without a hit: at the top dose inhibition of complex formation; hit rate 0.031% among 340,000; active = rising FRET ratio curve, often small or poorly fitted; inconclusive = mostly compound fluorescence or quenching in the first reads; inactive = flat curves in all reads;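 also: potency is read from the fitted curve at half-maximal effect; 0% = DMSO wells and 100% = buffer wells lacking importin beta; nearly all actives have a fitted effect of over 15% in size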
#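 FRET biosensor Rango (snurportin 1 IBB between N-terminal EYFP and C-terminal Cerulean), 50 nM in PBS/1 mM DTT/0.02% Tween-20/0.1% BSA, preincubated 5 min RT with compound; 0.125 microM importin beta added, 45 min RT, CFP/YFP FRET ratio read.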
# Numbers without * were called inactive; ? = inconclusive; / = no result given; & = joins results of further samples; [ ] = remark or other dose. Not all compounds are listed. The share of hits here may be higher or lower than overall.
SMILES,miR-21 FLuc,GLA inh pH 4.5,Rango dissoc inh,Rango complex inh
C[C@@H]1NC(=O)[C@H](CCCN=C(N)N)NC(=O)c2cc([N+](=O)[O-])cc(I)c2NCCC[C@@H](C(N)=O)NC1=O,-13.9%,-0.9,27.9%,3.6%
COc1ccc(NC(=O)NC2(C(=O)N3CCCC3)CCCCC2)cc1,0.3%,/,1.9%,-2.1%
Cc1ccc(S(=O)(=O)N2CCOCC2)cc1C(=O)NC(=S)N1CC(C)CC(C)C1 (configuration not stated),-1.2%,-3.1,-0.7%,-4.4%
CC(C)Cn1nc(C(=O)N2CCc3ccccc32)c2ccccc2c1=O,/,/,11.7%,-6.0%
CCn1c(SCC(=O)N2c3ccccc3Sc3ccccc32)nnc1-c1ccco1,-5.8%,-9.7,0.7%,0.3%
O=C(COC(=O)COc1ccc(Cl)cc1Br)NCc1cccs1,-4.0%,-4.1,0.4%,?
CCOc1ccc(C2CC(c3cccc(OC)c3OC)n3nnnc3N2)cc1Cl (configuration not stated),-0.8%,-17.7,9.4%,-1.4%
COc1cc(Cl)c(C)cc1N1C(=O)CN(Cc2ccccc2)C1=S,-0.1%,/,-0.1%,-1.4%
Cc1ccc(S(=O)(=O)NCc2ccccc2)s1,-0.1%,/,-1.3%,4.8%
Cc1cc(NC(=O)CCC(=O)N(Cc2cccs2)C(C(=O)NC2CCCC2)c2ccncc2)no1 (configuration not stated),-3.4%,-4.6,-7.6%,-0.5%
CC(C)CC(=O)NC(=S)Nc1ccccc1C(F)(F)F,-8.7%,-2.2,3.0%,-3.8%
CCN(CC(=O)Nc1ccccc1OC)C(=O)CCOc1ccc(C(C)(C)C)cc1,/,/,12.7%,-0.6%
Cn1nc(C(F)(F)F)c(/C=N/OC(=O)c2ccc(Cl)cc2)c1Cl,-0.9%,-6.1,-0.5%,0.8%
CC(C)(C)c1ccc(Oc2cccc(C3CC(=O)C(C4NCCc5ccccc54)C(=O)C3n3cncn3)c2)cc1 (configuration not stated),3.2%,-9.0,-7.6%,-0.8%
C[C@@H]1COC(=O)[C@@H](Cc2ccc(F)cc2)CC/C=C\C[C@@H](CC(=O)NCCO)C(=O)N1,/,/,-1.2%,0.9%
CC(NC(=O)COC(=O)c1cn(-c2ccccc2)nc1-c1cccs1)c1ccccc1 (configuration not stated),8.9%,0.4,2.5%,0.4%
O=C(COC(=O)c1cncc(Br)c1)NC1CCCC1,0.9%,3.9,2.0%,0.1%
CCOc1ccccc1C1c2[nH]c3ccccc3c2C[C@H]2C(=O)N(C3CCN(Cc4ccccc4)CC3)CC(=O)N12 (some centres not stated),25.5%,/,20.1%,3.3%
Cc1ccc(C2C3CSCC=C3C(C#N)=C(N)C2(C#N)C#N)cc1 (configuration not stated),0.4%,-3.1,?,-2.3%
Cc1ccc(-c2cc(C(=O)N3CCN(C(=O)c4ccco4)CC3)no2)cc1,-17.7%,6.7,-4.6%,-4.7%
O=C1c2cccnc2C(Nc2cccc(F)c2)N1Cc1ccco1 (configuration not stated),-0.2%,-1.2,32.6%,3.8%
CCOC(=O)C1=C(C)Nc2ncnn2C1c1cccs1 (configuration not stated),1.2%,-2.9,14.9%,2.0%
Cc1ccc(NC(=O)COC(=O)C2CC2)c(Br)c1,-7.8%,-3.2,6.9%,-1.9%
Cc1nc(N2CCC(C)CC2)c2c(C)c(C(=O)Nc3cccc(C(F)(F)F)c3)sc2n1,-1.6%,-3.0[21.1 µM],-7.2%,-6.0%
Cc1ccc(NC(=O)COC(=O)CN2C(=O)NC3(CCCC3)C2=O)cc1Cl,/,/,?,0.4%
O=C(COc1ccc(Cl)cc1)NCCNC(=O)c1cnccn1,1.7%,/,11.5%,?
Nc1cc(C(=O)OCC(=O)NCCC2=CCCCC2)ccc1Cl,/,/,-4.7%,-2.0%
O=C(/C=C/c1cccc([N+](=O)[O-])c1)NCCSCc1c(Cl)cccc1Cl,-17.0%,0.4,-13.5%,-4.8%
Cc1cccc2cc(CN(Cc3ccc(F)cc3)Cc3nnnn3C3CCCC3)c(=O)[nH]c12,-7.7%,0.9,-4.9%,0.8%
CCN(CC)CCNC(=O)c1cn(CC)c2cc(N3CCN(C(=O)c4ccco4)CC3)c(F)cc2c1=O,-1.9%,-1.5,-6.0%,-2.9%
O=S(=O)(Nc1ccc(-c2nc3cccnc3s2)cc1)c1cc(F)ccc1F,-67.8%,?,?,?
Cc1coc2c1c(C)cc1oc(=O)c(CC(=O)N[C@H](C(=O)O)C(C)C)c(C)c12,-5.6%,/,-11.7%,2.0%
Cc1ccc(C)c(S(=O)(=O)N2CCN(C(=O)c3ccc(OCc4c(C)noc4C)cc3)CC2)c1,/,/,-2.9%,-2.4%
CN[C@H]1CC[C@@H](c2ccc(Cl)c(Cl)c2)c2ccccc21,/,-10.5&-11.2&-13.1&-5.2,0.4%&-4.8%,0.5%&0.1%
CN1CCc2c(c3ccccc3n2C)C1,-2.4%,2.5,-11.7%,-0.1%
COc1ccc(C2=NN(C(=O)CCC(=O)O)C(c3ccccc3F)C2)cc1 (configuration not stated),-6.5%,/,-3.9%,-2.5%
O=C(Nc1nnc(Cc2ccccc2)s1)c1cccs1,-44.6%,-3.6,-10.8%,-0.8%
COc1ccccc1NC(=O)CCC(=O)OCc1ccc(Br)cc1,1.9%,-2.1,-4.0%,1.7%
COc1ccc(CN(C(=O)CSc2nnc(-c3ccc(OC)c(OC)c3)o2)c2ccc(F)cc2)cc1,-0.6%,?,-3.0%,1.0%
O=C(NC1CCCCCCC1)C1c2ccccc2C(=O)N1Cc1ccco1 (configuration not stated),-4.1%,-1.0,4.5%,?
O=C1N=C(N2CCc3ccccc3C2)S/C1=C\c1cccc(O)c1,-42.3%,1.5,9.9%,-1.4%
Cc1ccc(C(=O)NCCCN2CCOCC2)cc1S(=O)(=O)N1CCCCC1,/,/,-16.0%,3.1%
CC1CCN(C(=O)CCC(=O)N2CC(C)Oc3ccccc32)CC1 (configuration not stated),0.0%,/,-3.5%,0.3%
Cc1oc(-c2ccccc2Cl)nc1CSCC(=O)N1CCCC1,15.6%,-5.0,3.7%,2.0%
CCOC(=O)C(C(=O)OCC)C(C#N)c1ccccc1 (configuration not stated),-3.2%,3.5,0.2%,2.6%
O=C(C1CCCC1)N1CCN(S(=O)(=O)c2ccc(F)c(F)c2F)CC1,0.4%,/,-7.3%,4.0%
COc1ccccc1C(=O)Nc1ccc2c(c1)OCCO2,-46.2%,8.2,25.5%,-2.2%
Cc1cc(C)cc(OCC(=O)NNC(=O)c2ccccn2)c1,/,/,13.3%,0.4%
CC(=O)Nc1c(C(=O)Nc2ccc3c(c2)OCO3)oc2ccccc12,-54.7%,/,8.2%,-0.2%
CC1(C(=O)N2CCN(C(=O)c3ccco3)CC2)CC1(Br)Br (configuration not stated),0.2%,/,10.2%,-0.4%
COc1ccc(C2=NN(C(=O)CCC(=O)O)C(c3ccc(F)cc3)C2)cc1 (configuration not stated),-4.9%,/,-2.9%,0.7%
COc1ccc(-c2csc3ncnc(Oc4ccc5c(C)cc(=O)oc5c4)c23)cc1,-11.9%,0.5,0.0%,-0.4%
COc1ccc([C@H]2/C=C\CN(S(C)(=O)=O)[C@@H](C)C(=O)N2Cc2ccc(F)cc2)cc1,/,/,-1.9%,4.0%
COc1cccc(NC(=O)CN(C)C(=O)C2=COCCO2)c1,/,/,-13.0%,0.7%
S=C(NCCC(c1ccccc1)c1ccccc1)Nc1ccccc1Cl,-2.6%,-4.0,-18.2%,-0.9%
Cc1ccc(S(=O)(=O)N(C)CC(=O)O/N=C(\N)c2cccnc2)cc1,/,/,-2.9%,3.6%
c1ccc(CN=C2NN=C(c3ccccc3)CS2)cc1,-52.6%,-7.4,1.6%,1.5%
CCN(CC)CCCN(Cc1cc2cc3c(cc2[nH]c1=O)OCCO3)C(=O)Nc1ccc(F)cc1,-21.3%,-5.8,12.2%,-1.1%
COC(=O)C1C(OC)=CC(=O)C2CCCCC21 (configuration not stated),/,/,1.7%,-0.9%
COc1ccc(CC(=O)NCC(=O)N/N=C/c2ccco2)cc1,-1.0%,0.8,-1.3%,-1.1%

# 3 entries already listed, arranged by the value under Rango complex inh, low to high:
molecule,Rango complex inh
COc1ccc(CC(=O)NCC(=O)N/N=C/c2ccco2)cc1,-1.1%
COC(=O)C1C(OC)=CC(=O)C2CCCCC21 (configuration not stated),-0.9%
CC1(C(=O)N2CCN(C(=O)c3ccco3)CC2)CC1(Br)Br (configuration not stated),-0.4%

# Next structures:
SMILES,miR-21 FLuc,GLA inh pH 4.5,Rango dissoc inh,Rango complex inh
COc1ccnc(Oc2cccc(C(F)(F)F)c2)c1C(=O)N/C=N/OCc1ccccc1F,-0.2%,-7.9,10.3%,-3.2%
Cn1c(=O)[nH]c(=O)c2c1nc(N1CCCCCC1)n2CC(N)=O,0.5%,6.0,-4.2%,-0.7%
CCSc1nc2sccc2c(=O)n1-c1ccccc1,-10.9%,/,2.9%,-2.7%
CCOC(=O)n1ccc(C(=O)Nc2ccccc2F)n1,-28.0%,-3.3,0.7%,2.7%
O=C(c1cccc(OCc2ccccc2)c1)N1CCOCC1,-16.2%,-4.4,-17.4%,-6.1%
CCC1CCCCN1C(=O)CCn1c(=O)oc2ccccc21 (configuration not stated),/,/,21.1%,0.0%
COc1cccc(/C(=N/O)C2CC2c2ccc(Cl)cc2)c1 (configuration not stated),-8.3%,-6.6,0.9%,-0.2%
Cn1c(=O)c2c(nc(CO)n2C)n(C)c1=O,-1.1%,10.6,-25.6%,6.2%
Cc1cccc(Oc2ccccc2NC(=O)CSCC(=O)Nc2cc(C)on2)c1,/,/,12.8%,-3.9%
Cc1cccc(C)c1N(CC(=O)NN=C1CCCCCC1)S(C)(=O)=O,5.8%,-0.1,10.1%,-1.5%
Cn1nc2c3cc(F)ccc3n(Cc3ccc(F)cc3)cc-2c1=O,-0.5%,/,-5.2%,5.2%
C=CCn1c(SCC(=O)N2CCN(c3ccc(F)cc3)CC2)nnc1-c1cccs1,-1.5%,-10.3,-10.9%,0.5%
N=c1c(S(=O)(=O)c2ccc(Cl)cc2)cc2c(=O)n3ccccc3nc2n1C1CCCC1,-2.0%,/,?,?
Cc1ccc(NC(=O)CN(C)Cc2cccs2)cc1Cl,-31.0%,/,2.7%,0.1%
C=CCNS(=O)(=O)c1cccc(C(C)=O)c1,-1.0%,1.1,0.6%,0.6%
O=C(O[C@@H]1[C@H](Cc2ccccc2)NS(=O)(=O)[C@H]2C[C@@H]3C=C[C@]12O3)c1ccccc1Br,/,/,4.0%,1.3%
CCCCOC(=O)Oc1ccc2c(=O)c(Oc3cccc(C)c3)coc2c1,-60.0%,6.7,-14.0%,1.1%
CC(C)CCN(C(=O)c1csnn1)C(C(=O)NC1CCCCC1)c1ccc(F)cc1 (configuration not stated),1.9%,/,4.4%,0.2%
C=CCC(NCc1ccco1)c1ccc(OC)cc1OC (configuration not stated),-4.3%,-2.0,/,/
CC(=O)c1cn(CCOc2cc(C)ccc2C)c2ccccc12,?,/,-9.9%,-2.8%
CCOC(=O)c1ccc(N2C(=O)C(CC(N)=O)N(NC(=O)c3cccc(F)c3)C2=S)cc1 (configuration not stated),-1.1%,/,7.1%,-1.1%
CCCCCc1cc(=O)oc2c(C(CCN3CCN(c4ccccc4)CC3)c3ccc(N(C)C)cc3)c(OC)cc(OC)c12 (configuration not stated),3.9%,-4.3,-8.8%,-0.2%
CN(C)c1ccc(CNC(=O)C2CCC(CNc3c(N4CCCCC4)c(=O)c3=O)CC2)cc1 (configuration not stated),1.5%,-4.6,-5.6%,-1.3%
COc1ccc(C2CC(=O)C3=C(C2)Nc2ncnn2C3c2ccccc2C)cc1 (configuration not stated),-2.5%,13.7,7.7%,-0.9%
CC(=O)Nc1ccc(N(CC(=O)NC2CCCCC2)C(=O)Cn2nnc(-c3ccccc3)n2)cc1,-1.7%,/,-22.4%,-2.8%
CCOC(=O)c1cc(-c2cccc([N+](=O)[O-])c2)n[nH]1,-0.4%,-17.5,-3.9%,6.6%
O=C(O)c1ccc(N=Cc2c(O)ccc3oc4c(c23)CCCC4)cc1,17.2%,-8.2,3.2%,-0.3%
